# Screening results from PubChem BioAssay.
# KCNQ2 inh: KCNQ2 potassium channel inhibitors, primary screen, cell-based, CHO-K1, FluxOR thallium flux, B-score (AID 2156) | Potassium voltage-gated channel subfamily KQT member 2 (Rattus norvegicus), O88943 | 20 min; hits give low values; only compounds with negative scores are shown here; some inactives read as strong as hits | 310,000 tested, 1.1% active | B-score at 10 µM;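 active = fluorescence ratio B-score at most minus 3 library SDs, with starting brightness B-score within 2 library SDs, cut at about -5.5 in these data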
# Target sequence (O88943 whole entry, looked up): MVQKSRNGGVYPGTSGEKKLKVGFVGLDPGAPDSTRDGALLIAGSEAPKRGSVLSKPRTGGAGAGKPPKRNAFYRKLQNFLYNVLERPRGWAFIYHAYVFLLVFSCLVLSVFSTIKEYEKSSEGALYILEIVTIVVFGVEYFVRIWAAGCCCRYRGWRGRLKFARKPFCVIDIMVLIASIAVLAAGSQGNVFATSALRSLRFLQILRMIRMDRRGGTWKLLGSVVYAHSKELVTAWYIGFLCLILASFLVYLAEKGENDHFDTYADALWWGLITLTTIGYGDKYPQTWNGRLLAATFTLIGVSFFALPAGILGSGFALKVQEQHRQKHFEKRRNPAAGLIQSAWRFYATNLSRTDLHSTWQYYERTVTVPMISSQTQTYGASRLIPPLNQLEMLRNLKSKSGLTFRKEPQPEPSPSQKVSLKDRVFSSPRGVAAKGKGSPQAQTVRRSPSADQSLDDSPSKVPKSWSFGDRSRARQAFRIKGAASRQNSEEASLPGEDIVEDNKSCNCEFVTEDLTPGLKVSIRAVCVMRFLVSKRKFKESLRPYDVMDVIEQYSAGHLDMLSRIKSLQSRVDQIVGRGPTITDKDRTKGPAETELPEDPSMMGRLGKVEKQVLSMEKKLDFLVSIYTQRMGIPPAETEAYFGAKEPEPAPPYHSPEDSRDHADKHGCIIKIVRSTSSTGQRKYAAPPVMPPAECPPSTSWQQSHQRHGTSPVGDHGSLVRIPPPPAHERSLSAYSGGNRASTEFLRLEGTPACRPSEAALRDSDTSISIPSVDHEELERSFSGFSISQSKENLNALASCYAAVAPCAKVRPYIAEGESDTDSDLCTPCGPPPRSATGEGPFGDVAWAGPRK
# KCNQ2 inh baseline: recorded beside KCNQ2 inh, whose call it bears; B-score; measured here: initial fluorescence intensity artifact check;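 brightness before thallium and not channel activity; 0 = typical well and far values either way flag optical interference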
# Active calls of the source: *; i = inactive.
nr | canonical_smiles | KCNQ2 inh | KCNQ2 inh baseline
1 | CCOc1ccc(OCCSc2nc3ccccc3o2)cc1 | i | 0.95
2 | CCOc1ccc(/C=N/OCC(=O)Nc2ccc3c(c2)OCO3)cc1 | i | 0.07
3 | COc1ccc(-c2noc(-c3ccccc3-c3ccccc3)n2)cc1 | -6.6* | 0.05*
4 | O=C(Nc1ccccc1C(=O)O)c1ncn[nH]1 | i | -0.23
5 | N/C(=N\OC(=O)COc1ccc(Cl)cc1Cl)c1cccnc1 | i | 0.25
6 | CCn1c(CNC(=O)c2cc(OC)c(OC)c(OC)c2)cc2cc(C)ccc21 | i | -0.3
7 | Cc1ccc(CNC(=O)CCS(=O)(=O)c2ccc3c(c2)CC(C)N3C(=O)C2CC2)cc1 (configuration not stated) | i | -0.15
8 | O=C(C1CCN(S(=O)(=O)c2cnc[nH]2)CC1)N1CCN(c2ccc([N+](=O)[O-])cc2)CC1 | i | 0.01

# The list goes on:
nr | canonical_smiles | KCNQ2 inh | KCNQ2 inh baseline
9 | O=C(NCCCN1CCOCC1)C(=O)NCc1ccc(Cl)cc1 | i | 1.9
10 | CCc1cccc(C)c1NC(=S)N(Cc1cccnc1)Cc1ccco1 | i | 1
11 | CCOc1ccc(-c2cc(C(=O)NCCCn3ccnc3)c3ccccc3n2)cc1 | i | 4.1
12 | CCOc1ccc(C(=O)NC(=S)Nc2cccnc2)cc1 | i | 1.3
13 | Cc1ccc(Cc2c(C)nc3nc(SCC(=O)NCCCN4CCCC4)nn3c2C)cc1 | i | -0.04
14 | CCCNC(=O)CSc1nc2ccc(OCC)cc2s1 | i | -0.8
15 | OCCNC(=S)Nc1ccc2nsnc2c1 | i | 1.6
16 | CCOc1c(Br)cc(C(N)=O)cc1OC | i | -0.04

# Carrying on.
nr | canonical_smiles | KCNQ2 inh | KCNQ2 inh baseline
17 | COc1ccc(C(=O)C2CCCN(C(=O)CSC)C2)cc1OC (configuration not stated) | i | 3.3
18 | O=S(=O)(Nc1ccc2c(c1)nc1n2CCN(Cc2ccccc2)C1)c1ccc(Cl)cc1 | i | -0.81
19 | Cc1[nH]c2ccc3c(ncn3CCC#N)c2c1C | i | 1.1
20 | CCc1ccc(C2=NNC(=Nc3cccc(S(=O)(=O)N(C)C)c3)SC2)cc1 | i | 0.08
21 | CCC(CC)c1nnc(NC(=O)C2CC(=O)N(CCc3ccc(OC)c(OC)c3)C2)s1 (configuration not stated) | i | -0.09
22 | O=C(/C=C/c1ccccc1)C1=C(O)C(=O)N(CCO)C1c1cccc([N+](=O)[O-])c1 (configuration not stated) | i | 0.02
23 | CCOC(=O)/C(=N\Nc1cccc(C(F)(F)F)c1)N(CCOC)CCOC | i | -1.6
24 | COc1ccc(/C=C/C(=O)c2ccc(O)cc2)cc1 | i | -1.4

# Following part.
nr | canonical_smiles | KCNQ2 inh | KCNQ2 inh baseline
25 | CCOCC(=O)Nc1ccc(C)c(Cl)c1 | i | -0.39
26 | CCN1CN=C(NS(=O)(=O)c2ccc(C)cc2)NC1 | i | 1.7
27 | COCC(=O)N1CCC(Oc2ccc(C(=O)NCCCC3CCCC3)cc2)CC1 | i | 2.3
28 | Cc1ccc(NC2=C(CC(=O)O)C(c3ccccc3)N(c3ccc(C)cc3)C2=O)cc1 (configuration not stated) | i | 0.27
29 | CCOc1ccc(N=Cc2c(O)c3ccccc3oc2=O)cc1 | i | 0.06
30 | COC(=O)c1ccc2nccnc2c1 | i | -0.66
31 | CC(NC(=O)C12CC3CC(CC(C3)C1)C2)C(=O)NCCN(C)C (configuration not stated) | i | 1.1
32 | Cc1ccc(NC(=S)Nc2ccc(F)cc2)cc1 | i | -0.19

# Following part.
nr | canonical_smiles | KCNQ2 inh | KCNQ2 inh baseline
33 | O=C(COC(=O)/C=C/c1ccc(S(=O)(=O)N2CCOCC2)cc1)NCc1ccc(F)cc1 | i | -0.52
34 | Cc1ccc(CN2CCN(C(=O)CC(C)C)CC2)cc1 | i | -0.53
35 | Cn1cccc1C(=O)OCc1csc(-c2ccccc2)n1 | i | -0.19
36 | C(=N\Nc1nc(N2CCCC2)nc(N2CCCC2)n1)/c1ccccc1OCc1ccccc1 | i | -0.41
37 | CCc1c(C)nc2ccc(Br)cc2c1Cl | i | -0.78
38 | CC(=O)Nc1ccc(N/C=C/C(=O)c2ccc(C)cc2)cc1 | i | -0.04
39 | Cc1ccc(-c2nc(CS(=O)CC(=O)NC3CCCC3)c(C)o2)cc1 (configuration not stated) | i | 1.3
40 | O=C(CSc1c2c(nc3ccc(Cl)cc13)CCCC2)NCCCN1CCOCC1 | i | 2.5

# Continued.
nr | canonical_smiles | KCNQ2 inh | KCNQ2 inh baseline
41 | CCCCN(C(=S)NC(=O)c1cc(OC)c(OC)c(OC)c1)c1c(N)n(Cc2ccccc2)c(=O)[nH]c1=O | i | 2.8
42 | O=C1/C(=C\c2ccc(Br)o2)SC(=Nc2ccccc2)N1c1ccccc1 | i | 1.1
43 | CCCCOc1ccc(OC(=O)Nc2cc(Cl)ccc2OC)cc1 | i | 1.4
44 | CN1CC(=O)N(CC(=O)N2N=C(c3ccc(Cl)cc3)CC2c2ccco2)C1=O (configuration not stated) | i | -0.81
45 | COC(=O)c1ccc(N=NNc2ccccc2)cc1 | i | 1.5
46 | Cc1ccc2c(c1)C1(OCCO1)C(=O)N2 | i | -0.45
47 | Cn1c(CCc2ccc(N)cc2)nc2ccccc21 | i | -1.3
48 | COc1ccccc1Nc1ccc([N+](=O)[O-])cn1 | i | 0.56

# (cont.)
nr | canonical_smiles | KCNQ2 inh | KCNQ2 inh baseline
49 | Cc1csc(CN(C)C(=O)CC2C(=O)NCCN2Cc2ccc(Cl)c(F)c2)n1 (configuration not stated) | i | -0.22
50 | COc1cc(/C=C/C(=O)C2C(=O)C=C(C)OC2=O)cc(OC)c1O (configuration not stated) | i | 2.2
51 | O=C(COc1ccc(S(=O)(=O)N2CCOCC2)cc1Cl)NCc1ccccn1 | i | 0.33
52 | CCCCNC(=S)NNC(=O)c1nn(C)cc1Cl | i | -0.31
53 | CCn1c(C)cc(/C=C2/SC(=O)N(CC(=O)N3CCCC3)C2=O)c1C | i | 1.3
54 | Cc1c(/C(O)=C2/C(=O)C(=O)N(Cc3cccnc3)C2c2ccccn2)cnn1-c1ccccc1 (configuration not stated) | i | -1.1
55 | COc1cccc(N2CCN(c3ccc4nnc(CCC(=O)Nc5ccc(F)cc5F)n4n3)CC2)c1 | i | -0.39
56 | O=C(Oc1ccc(Br)cc1C(=S)N1CCOCC1)c1cccc([N+](=O)[O-])c1 | i | 0.82

# Additional records:
nr | canonical_smiles | KCNQ2 inh | KCNQ2 inh baseline
57 | CC(C)c1ccc(N2C(=O)CC(NNC(=O)c3ccccc3Cl)C2=O)cc1 (configuration not stated) | i | 0.48
58 | CC1/C(=N/O)CC(c2ccccc2)NC1c1ccccc1 (configuration not stated) | i | 0.93
59 | COc1ccc(CCNC(=O)CCC(=O)Nc2nnc(C(C)C)s2)cc1OC | i | 0.38
60 | CC1(C)Cc2ccccc2/C(=C/C(=O)N2CCCCCC2)N1 | i | -1.8
61 | CC(=O)c1cccc(NC(=O)C(OC(=O)c2cccc(S(=O)(=O)N(C)c3ccccc3)c2)c2ccccc2)c1 (configuration not stated) | -5.5* | 0.09*
62 | COc1ccc(-c2c(C#N)c(SCC(N)=O)nc3c2CCCC3)cc1 | i | 0.71
63 | Cc1nc(CSc2nnc(C)s2)cs1 | i | -0.26
64 | COc1ccc(CNC(=O)c2ccc(N(C)S(=O)(=O)c3ccc(C)cc3)cc2)cc1 | i | 1.9

# Going on with the list:
nr | canonical_smiles | KCNQ2 inh | KCNQ2 inh baseline
65 | CC(=O)N1c2ccc(S(=O)(=O)N3CCCC3)cc2CC1C(=O)NC(C)C (configuration not stated) | i | 2.2
66 | COc1cccc(Cn2cc(C)cc(NC(=O)NCc3ccccc3)c2=O)c1 | i | 0.28
67 | COc1ccc(NC(=O)Cn2nc(Cc3cccnc3)c3ccccc3c2=O)c(OC)c1 | i | 0.99
68 | COc1ccc(C2=C/C(=C\c3ccccc3OC(C)=O)C(=O)O2)cc1 | i | 2.4
69 | CC(C)C1C(C#N)=C(N)Oc2n[nH]c(-c3cccs3)c21 (configuration not stated) | i | -0.06
70 | O=C(CC(Nc1ccc(F)cc1)c1ccccc1)c1ccccc1 (configuration not stated) | i | 0.95
71 | C/C(=N\Nc1ncc(Cl)cc1Cl)c1ccc(N2CCOCC2)cc1 | i | 0.73
72 | O=C(NCCC1=CCCCC1)c1cc(-c2ccncc2)nc2ccccc12 | i | -2.7

# Next results:
nr | canonical_smiles | KCNQ2 inh | KCNQ2 inh baseline
73 | CCCCC(c1nnnn1CC1CCCO1)N1CCN(c2nc3ccccc3s2)CC1 (configuration not stated) | i | -0.18
74 | CSc1nc(C)c(C(=O)C[n+]2ccc(C)cc2)cc1C#N | i | 1.2
75 | Nn1c(SCC(=O)Nc2ccccc2F)nnc1C1CCCCC1 | i | -0.58
76 | CC1CCCC(NCC(O)COC(c2ccc(F)cc2)c2ccc(F)cc2)C1C (configuration not stated) | i | -1
77 | CCOC(=O)CNc1nc(Cl)c(C#N)s1 | i | -1.5
78 | CC(C)Nc1nc(NC(C)C)nc(SCCOC(=O)Nc2ccc(Cl)cc2Cl)n1 | i | -0.03
79 | S=C(NCC1CCCO1)NC12CC3CC(CC(C3)C1)C2 (configuration not stated) | i | -1.9
80 | O=C(CN1C(=O)S/C(=C\c2ccccc2)C1=O)NC1CCS(=O)(=O)C1 (configuration not stated) | i | 0.25

# Other compounds.
nr | canonical_smiles | KCNQ2 inh | KCNQ2 inh baseline
81 | COc1ccc(NC(=O)c2cc(S(=O)(=O)N3CCc4ccccc43)cn2C)c(OC)c1 | i | 0.32
82 | O=C(O)C1CCCCC1C(=O)N1CC=C(c2ccccc2)CC1 (configuration not stated) | i | 0.24
83 | Cc1ccc(OCC(=O)NNC(=O)c2cccnc2)cc1C | i | 0.02
84 | COc1ccc(NC(=O)c2c(C(F)(F)F)nn(C)c2SCc2ccccc2)cc1 | i | 2
85 | CCCOc1ccc(CC(=O)NCc2ccco2)cc1OC | i | 0.82
86 | O=C(c1cc[n+]([O-])cc1)N1CCc2c([nH]c3ccccc23)C1c1ccccc1Cl (configuration not stated) | i | 1.3
87 | CC(C)(C)c1ccc(C(=O)N/N=C/c2ccccn2)cc1 | i | -0.14
88 | Cc1cccc(OCC(=O)NC(=S)Nc2ccccc2N2CCOCC2)c1 | i | -0.09

# (further entries)
nr | canonical_smiles | KCNQ2 inh | KCNQ2 inh baseline
89 | CC1=C(C)C(=O)N(c2ccc(C(=O)O)cc2)C1=O | i | 0.57
90 | Cc1c(C(=O)N2CCCCCC2)c(S(=O)(=O)Nc2ccc(F)cc2)c(C)n1C | i | -0.51
91 | CC(C)N1C(=O)c2ccccc2N(Cc2ccccc2)S1(=O)=O | i | -2.3
92 | CCN(CC)C(=O)c1[nH]cnc1C(=O)N[C@@H](Cc1ccccc1)C(=O)OCc1ccccc1 | i | 0.02
93 | CCc1cccc(NC(=O)CSCc2cc(=O)[nH][nH]2)c1 | i | 2
94 | Cc1cc2oc(=O)cc(C)c2cc1NC(=O)CCC(=O)O | i | 0.2
95 | CCOc1ccc(N2C(=O)C3C(c4ccc(OC)cc4OC)NC(CCSC)(C(=O)OC)C3C2=O)cc1 (configuration not stated) | i | -0.04
96 | Cc1ccc(S(=O)(=O)N(C)C)cc1NC(=O)C(C)OC(=O)C1CCCC1 (configuration not stated) | i | 0.47

# Remaining list, next part
nr | canonical_smiles | KCNQ2 inh | KCNQ2 inh baseline
97 | C=CCn1c(SCc2nc3ccccc3[nH]2)nnc1-c1ccccn1 | i | 2.1
98 | Cc1ccc(N(C(=O)CNC(=O)c2ccco2)C(C(=O)NC2CCCC2)c2ccncc2)cc1C (configuration not stated) | i | 0.94
99 | CC1CCCCN1C(=O)c1c([N+](=O)[O-])cnn1C (configuration not stated) | i | -0.21
100 | Cc1cc(NC(=O)CSc2nnc(CNC(=O)c3ccc(C(C)(C)C)cc3)o2)no1 | -6.4* | -1.3*
101 | NCCNc1ccc2nnnn2n1 | i | -0.09
102 | COc1ccc(/C=C(/C(=O)NCc2ccccc2)c2ccccc2)cc1 | i | 1.2
103 | CC1CN(S(=O)(=O)c2ccc(C(=O)Nc3ccc(S(=O)(=O)Nc4nccs4)cc3)cc2)CC(C)O1 (configuration not stated) | i | -2.2
104 | CCOC(=O)C(=O)Nc1sc(C(=O)N2CCOCC2)c(C)c1C#N | i | 0.01

# The results go on.
nr | canonical_smiles | KCNQ2 inh | KCNQ2 inh baseline
105 | O=C(OCC(=O)C12CC3CC(CC(C3)C1)C2)c1cnccn1 | i | -0.12
106 | CN(C)CCCNC(=O)COc1ccc(Br)cc1Cl | i | 0.76
107 | O=C(O)C1CCCCC1C(=O)Nc1ccccc1Nc1ccccc1 (configuration not stated) | i | -0.98
108 | COC(=O)CCC(NC(=O)OCc1ccccc1)C(=O)NC(CC(C)C)C(=O)OC (configuration not stated) | i | 0.67
109 | CCOP(=O)(OCC)c1nc(/C=C/c2ccccc2)oc1NCc1ccccc1 | i | 0.55
110 | O=C(c1ccc2c3c(cccc13)CC2)C1CCCN(C(=O)c2cccnc2)C1 (configuration not stated) | i | 0.75
111 | COc1ccccc1C(=O)Nc1sc2c(c1C#N)CCC2 | i | 1.6
112 | Cc1nnc(Nc2ccc(Cl)c(C(F)(F)F)c2)[nH]c1=O | i | -0.79

# The results go on:
nr | canonical_smiles | KCNQ2 inh | KCNQ2 inh baseline
113 | O=C(N/C(=C/c1cccnc1)C(=O)N1CCOCC1)c1ccccc1F | i | -0.39
114 | CCc1ccc(CNC(=O)Cn2nc(-c3ccc(C)cc3)ccc2=O)cc1 | i | -0.58
115 | CC(=O)Nc1ccc(S(=O)(=O)NCCC(=O)N2CCCCC2)cc1 | i | 0.16
116 | C[C@H]1[C@H](C)CC[C@]2(C)CC[C@]3(C)C(=CC[C@@H]4[C@@]5(C)CC[C@@H](O)[C@](C)(C(=O)O)[C@@H]5CC[C@]43C)[C@H]12 | -9.2* | -2.9*
117 | CC(C)NC(=O)c1ccc(-c2ccccc2C(F)(F)F)o1 | i | 0.17

# An excerpt; rates above refer to the full screens.
